# High-throughput results (PubChem BioAssay)
# DUX4 txn inh = inhibitors of DUX4-driven ZSCAN4 reporter expression, primary screen, 293T cells, Gaussia and Italica luciferase; 293T-iDUX4 ZSCAN4-Gaussia luciferase reporter, 24 h; hits give low values; activity change, negative = inhibition, % (concentration not given with the values); hit rate 0.8% among 37,000; AID 1224904, 2016;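 active = -10% or lower and over 25 points stronger than a control reporter; inconclusive = -10% or lower with a smaller gap; inactive = above -10%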;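 also: 0% = median of neutral control wells and -100% = median of positive control wells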
# DUX4 txn inh difference = recorded beside DUX4 txn inh, whose call it bears; Gaussia minus Italica difference, %; measured here: selective DUX4 reporter inhibition;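 worked out from the two reporters; negative = selective loss of the DUX4 reporter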
# DUX4 txn inh control = second read-out of DUX4 txn inh, no call of its own (marks repeat the call); activity change, negative = inhibition, %; measured here: Italica tet-on control reporter;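 0 = neutral control and -100 = positive control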
# * marks the source's active call; other numbers are inactive results; ? = inconclusive; · = not tested or not shown. Not all compounds are listed (hit frequency here may not be typical).
SMILES,DUX4 txn inh,DUX4 txn inh difference,DUX4 txn inh control
COc1ccc2c3c(n(C)c2c1)[C@@H](CO)N(C(=O)Nc1ccc(F)cc1)CC31CCN(C(=O)Nc2ccc(F)cc2F)CC1,0.4,3.1,-2.7
O=C(CN1CCOCC1)N1CC(=O)N2[C@H](C1)[C@@H](c1ccc(-c3cccc(F)c3)cc1)[C@@H]2CO,1.9,2.7,-0.7
O=C([C@@H]1[C@@H](CO)[C@@H]2Cn3c(ccc(C4=CCCCC4)c3=O)[C@H]1N2Cc1nccs1)N1CCOCC1,8.5,-0.7,9.2
COCC(=O)N1[C@@H](C#N)[C@@H](c2ccccc2-c2ccccc2)[C@@H]1CO,14.1,4.0,10.1
Cc1noc(C)c1S(=O)(=O)N(C)C[C@@H]1OCCCC[C@@H](C)Oc2ccc(N(C)C)cc2C(=O)N([C@H](C)CO)C[C@H]1C,-2.5,-4.8,2.3
C[C@H](CO)N1C[C@H](C)[C@@H](CN(C)Cc2cccnc2)Oc2ncc(C#Cc3ccccn3)cc2C1=O,5.6,5.6,-0.1
COc1ccc2c3c(n(C)c2c1)[C@@H](CO)N(C(=O)c1ccncc1)CC31CN(CC2CC2)C1,13.5,6.5,7.0
O=C(CC1CC1)N1CC2(C1)[C@@H](c1ccccc1)[C@@H](CO)N2CC1CCOCC1,-0.6,-5.7,5.1
C[C@H](CO)N1C[C@H](C)[C@@H](CN(C)S(=O)(=O)c2ccc(F)cc2)Oc2cc(C#Cc3ccncc3)ccc2S1(=O)=O,-1.4,-1.7,0.3
Cc1noc(C)c1NC(=O)Nc1ccc2c(c1)CC(=O)N([C@H](C)CO)C[C@H](C)[C@@H](CN(C)Cc1ccc(C(F)(F)F)cc1)O2,-0.2,0.3,-0.6
CC=Cc1ccc2n(c1=O)C[C@@H]1[C@@H](CO)[C@H](C(=O)OC)N(CCc3ccccc3)[C@H]21 (mixture of isomers),8.1,14.0,-5.9
O=C(NCC(F)(F)F)[C@H]1[C@H](CO)[C@H]2Cn3c(cccc3=O)[C@@H]1N2CCC(F)(F)F,6.1,1.3,4.8

# Copied from the results shown for reference:
SMILES,DUX4 txn inh,DUX4 txn inh difference,DUX4 txn inh control
C[C@H](CO)N1C[C@H](C)[C@@H](CN(C)Cc2cccnc2)Oc2ncc(C#Cc3ccccn3)cc2C1=O,5.6,5.6,-0.1
COc1ccc2c3c(n(C)c2c1)[C@@H](CO)N(C(=O)c1ccncc1)CC31CN(CC2CC2)C1,13.5,6.5,7.0
O=C(CC1CC1)N1CC2(C1)[C@@H](c1ccccc1)[C@@H](CO)N2CC1CCOCC1,-0.6,-5.7,5.1
C[C@H](CO)N1C[C@H](C)[C@@H](CN(C)S(=O)(=O)c2ccc(F)cc2)Oc2cc(C#Cc3ccncc3)ccc2S1(=O)=O,-1.4,-1.7,0.3
Cc1noc(C)c1NC(=O)Nc1ccc2c(c1)CC(=O)N([C@H](C)CO)C[C@H](C)[C@@H](CN(C)Cc1ccc(C(F)(F)F)cc1)O2,-0.2,0.3,-0.6
CC=Cc1ccc2n(c1=O)C[C@@H]1[C@@H](CO)[C@H](C(=O)OC)N(CCc3ccccc3)[C@H]21 (mixture of isomers),8.1,14.0,-5.9
O=C(NCC(F)(F)F)[C@H]1[C@H](CO)[C@H]2Cn3c(cccc3=O)[C@@H]1N2CCC(F)(F)F,6.1,1.3,4.8

# (list continues)
SMILES,DUX4 txn inh,DUX4 txn inh difference,DUX4 txn inh control
COc1ccc(NC(=O)Nc2ccc3c(c2)C(=O)N([C@@H](C)CO)C[C@@H](C)[C@@H](CN(C)C(=O)NC2CCCCC2)OCCCC[C@H](C)O3)cc1,1.9,-0.6,2.4
COc1cccc(S(=O)(=O)Nc2ccc3c(c2)C(=O)N(C)[C@H]2CC[C@H](CC(=O)O)O[C@@H]2CO3)c1,10.5,23.2,-12.7
CCC(=O)N[C@H]1CC[C@@H](CCNC(=O)Nc2ccc(F)cc2)O[C@@H]1CO,2.1,-1.4,3.4
CNC[C@@H]1OCc2ccccc2-c2c(n(C)c3ccccc23)C(=O)N([C@@H](C)CO)C[C@H]1C,1.7,2.1,-0.4
CC(C)NC(=O)Nc1ccc2c(c1)C(=O)N([C@@H](C)CO)C[C@H](C)[C@H](CN(C)C(=O)C1CCCCC1)OCCCC[C@H](C)O2,0.7,-0.5,1.2
CCCNC(=O)C[C@@H]1CC[C@@H]2[C@H](COc3ccc(NC(=O)c4cccc(C(F)(F)F)c4)cc3C(=O)N2C)O1,0.4,0.4,0.0
COc1cccc(NC(=O)N(C)C[C@H]2OCc3ccccc3-c3c(n(C)c4ccccc34)C(=O)N([C@@H](C)CO)C[C@@H]2C)c1,-0.8,3.4,-4.3
COc1ccc(C[C@H]2CCn3nncc3COC[C@@H](CC(C)C)NC2=O)cc1,0.5,-2.3,2.9
CS(=O)(=O)N1CCCCN2[C@H](C1)[C@H](c1ccc(Br)cc1)[C@@H]2CO,13.8,24.8,-11.0
C[C@@H]1CN([C@@H](C)CO)C(=O)c2cc(NC(=O)CCCN(C)C)ccc2O[C@@H](C)CCCCO[C@H]1CN(C)C(=O)Cc1ccccc1,0.1,-1.8,1.9
COc1ccc2c3c([nH]c2c1)[C@@H](CO)N(C)CC31CCN(C(=O)NC(C)C)CC1,14.5,13.2,1.3
O=C(C[C@@H]1CC[C@H]2[C@@H](COC[C@H](O)CN2S(=O)(=O)c2cccc(F)c2)O1)NCCCN1CCOCC1,15.4,14.1,1.3
C[C@@H]1CCCCO[C@H](CN(C)S(=O)(=O)c2ccccc2)[C@@H](C)CN([C@@H](C)CO)C(=O)c2cc(NC(=O)Nc3ccc4c(c3)OCO4)ccc2O1,0.6,0.9,-0.4
Cc1noc(C)c1NC(=O)Nc1ccc2c(c1)C(=O)N(C)[C@@H]1CC[C@@H](CC(=O)N[C@@H]3CCN(Cc4ccccc4)C3)O[C@@H]1CO2,0.5,0.0,0.6
COc1ccc2c3c(n(C)c2c1)[C@@H](CO)N(CC1CC1)CC31CCN(C(=O)c2ccccc2)CC1,-32.4*,-27.1*,-5.3*
COc1ccc2c3c([nH]c2c1)[C@H](CO)N(Cc1nccs1)CC31CCN(C(=O)C2CCCCC2)CC1,?,·,·
O=C(C1CCC1)N1CC2(C1)[C@@H](c1ccccc1)[C@@H](CO)N2Cc1nccs1,8.7,-0.6,9.4
Cn1cnc(S(=O)(=O)N2CC[C@H]3[C@H](CO)Nc4ccc(-c5ccccc5F)cc4[C@H]32)c1,11.1,11.4,-0.3
COc1ccc2c3c([nH]c2c1)[C@H](CO)N(C(=O)c1cccnc1)CC31CN(C(=O)Nc2cccc(F)c2)C1,9.5,4.4,5.1
O=C(C[C@H]1C[C@H]2c3cc(NC(=O)c4cccnc4)ccc3O[C@H]2[C@@H](CO)O1)NCc1ccccn1,1.6,1.0,0.6
CO[C@@H](CN(C)C(=O)c1ccc2c(c1)OCO2)[C@H](C)CN([C@H](C)CO)S(=O)(=O)c1ccc(C)cc1,-1.1,-1.3,0.2
CCc1nc(N2[C@H](C#N)[C@@H](c3ccccc3-c3ccc(F)cc3)[C@H]2CO)sc1C,-6.7,-3.6,-3.1
COc1ccc2c3c([nH]c2c1)[C@H](CO)N(C)CC31CCN(C(=O)CN(C)C)CC1,19.0,17.4,1.7
C[C@@H]1CN([C@H](C)CO)C(=O)c2cc(NS(=O)(=O)c3cccs3)ccc2O[C@H]1CN(C)C(=O)Nc1ccc2c(c1)OCO2,-1.4,-1.5,0.1
COc1ccc(S(=O)(=O)N(C)C[C@@H]2Oc3cc(-c4ccccc4OC)ccc3S(=O)(=O)N([C@@H](C)CO)C[C@@H]2C)cc1,0.4,-3.4,3.9
C[C@H]1CN([C@@H](C)CO)C(=O)c2c(c3ccccc3n2C)-c2ccccc2CO[C@H]1CN(C)Cc1ccccc1C(F)(F)F,?,·,·
O=C(C[C@@H]1C=C[C@@H](NC(=O)CCN2CCCCC2)[C@H](CO)O1)NCc1ccc(Cl)c(Cl)c1,1.8,1.6,0.1
COc1ccccc1CNC(=O)C[C@@H]1CC[C@@H]2[C@H](COC[C@@H](O)CN2C(=O)Nc2ccc(F)cc2)O1,7.1,8.0,-0.9
CCC(=O)N1CC[C@@H]2[C@H]1c1cc(-c3ccc(F)cc3)ccc1N[C@@H]2CO,3.9,-1.8,5.7
COCCN(C[C@@H]1[C@@H](c2ccccc2)[C@@H](CO)N1C(C)=O)C(=O)c1ccncc1,-0.6,-1.9,1.2
O=C(c1cccc(F)c1)N1CC(=O)N2[C@H](C1)[C@H](c1ccc(/C=C/c3ccccc3)cc1)[C@@H]2CO,?,·,·
O=C(C[C@@H]1CC[C@@H]2[C@H](COC[C@H](O)CN2Cc2ccc(Oc3ccccc3)cc2)O1)N1CCOCC1,?,·,·
CC(C)CC#Cc1ccc([C@H]2[C@@H](CO)N3CCCCN(S(=O)(=O)c4ccc(F)cc4)C[C@H]23)cc1,?,·,·
O=C(C[C@H]1CC[C@@H]2[C@H](COC[C@H](O)CN2Cc2ccc(Cl)cc2)O1)Nc1nccs1,-0.8,-5.4,4.6
OC[C@H]1[C@H](c2ccc(C#Cc3cccnc3)cc2)[C@H]2CN(Cc3ccccc3F)CCCCN21,?,·,·
O=C(NC1CCC1)[C@H]1N[C@H]2c3ccc(-c4cccc(F)c4)c(=O)n3C[C@H]2[C@@H]1CO,-6.2,-13.6,7.4
O=S(=O)(c1ccccc1F)N1C[C@@H]2N[C@H](C1)C2c1ccc(/C=C/c2ccccc2)cc1 (stereo not given in full),?,·,·
C[C@@H]1CN([C@H](C)CO)C(=O)c2cc(/C=C/c3ccccc3)cnc2O[C@@H]1CN(C)C(=O)c1ccc2c(c1)OCO2,-5.2,-6.6,1.4
C[C@@H]1CN([C@H](C)CO)C(=O)c2cc(NC(=O)c3ccncc3)ccc2O[C@H]1CN(C)Cc1ccc(Oc2ccccc2)cc1,-1.1,-2.8,1.7
C[C@H]1CN([C@@H](C)CO)C(=O)CCCn2cc(nn2)CO[C@@H]1CN(C)Cc1cccc(C(F)(F)F)c1,0.8,-3.2,4.0
C[C@@H]1CN([C@@H](C)CO)C(=O)c2cc(C#Cc3ccccc3F)cnc2O[C@@H]1CN(C)C(=O)Cc1cccnc1,-0.6,-2.4,1.9
C[C@@H]1CCCCO[C@H](CN(C)S(=O)(=O)c2cn(C)cn2)[C@H](C)CN([C@@H](C)CO)C(=O)c2cc(NC(=O)c3ccncc3)ccc2O1,-3.5,-3.8,0.3
CO[C@H]1CC[C@@H]2CCN(C)C(=O)CCCN(C)C(=O)c3cc(C#N)ccc3OC[C@@H]1O2,-3.2,-2.8,-0.4
O=C(C1CCOCC1)N1[C@@H](CO)[C@@H](c2ccccc2)C12CN(CCC(F)(F)F)C2,8.9,3.5,5.4
COc1ccc(NC(=O)N2CC3(C2)CN(CC2CC2)[C@H](CO)c2c3c3ccc(OC)cc3n2C)cc1,-5.5,-5.5,0.0
O=C(C[C@H]1C[C@H]2c3cc(NC(=O)Cc4ccncc4)ccc3O[C@H]2[C@@H](CO)O1)NCc1cccnc1,8.0,3.9,4.1
C/C=C/c1ccc([C@@H]2[C@H](CO)N(C(C)=O)C23CN(S(C)(=O)=O)C3)cc1,15.9,6.4,9.6
CCCN1[C@H](C(=O)NCc2cccc(OC)c2)[C@@H](CO)[C@@H]2Cn3c(ccc(C4=CCCC4)c3=O)[C@@H]21,0.6,8.7,-8.1
C[C@H](CO)N1C[C@H](C)[C@@H](CN(C)Cc2cccc(F)c2)OCc2ccccc2-c2c(n(C)c3ccccc23)C1=O,?,·,·
O=C(NC[C@H]1[C@H](c2ccccc2)[C@H](CO)N1Cc1ccccn1)C1CC1,0.1,-0.9,1.0
O=C(NCC1CC1)[C@@H]1[C@@H](CO)[C@@H]2Cn3c(ccc(C4=CCCC4)c3=O)[C@@H]2N1Cc1ccccc1F,-1.8,4.3,-6.1
C/C=C/c1ccc2c(c1)O[C@H](CN(C)C(=O)Cc1cccnc1)[C@@H](C)CN([C@H](C)CO)S2(=O)=O,3.4,0.6,2.8
C[C@@H](O)C#Cc1ccc([C@H]2[C@@H](CO)N3CCCCN(C(=O)Nc4ccccc4)C[C@H]23)cc1,9.9,-6.1,16.0
COc1ccc(NC(=O)Nc2ccc3c(c2)[C@@H]2C[C@H](CC(=O)NCc4ccc5c(c4)OCO5)O[C@@H](CO)[C@@H]2O3)cc1,-5.9,-9.8,3.9
O=C(C1CCOCC1)N1CC(=O)N2[C@H](CO)[C@H](c3ccc(/C=C/c4ccccc4)cc3)[C@@H]2C1,7.4,9.5,-2.1
CO[C@H]1CN(C)C(=O)c2cc(C#N)ccc2OC[C@H]2O[C@@H](CC[C@@H]2OC)CCN(C)C(=O)[C@H]1C,-3.7,-7.2,3.5
Cc1ccccc1-c1ccc([C@H]2[C@@H](CO)N3CCCCN(C(=O)NC4CCCC4)C[C@@H]23)cc1,-9.1,1.7,-10.8
O=C(Nc1ccc(F)cc1)N1CC(=O)N2[C@H](CO)[C@@H](c3ccc(C#CC4CC4)cc3)[C@@H]2C1,-7.3,-4.5,-2.8
N#C[C@H]1[C@@H](c2ccc(C#Cc3cccc(F)c3)cc2)[C@@H](CO)N1C(=O)C1CCOCC1,1.9,2.8,-0.9
COc1ccccc1S(=O)(=O)N(C)C[C@H]1Oc2cc(/C=C/c3ccccc3)ccc2S(=O)(=O)N([C@H](C)CO)C[C@@H]1C,-0.3,-1.5,1.1

# Later entries.
SMILES,DUX4 txn inh,DUX4 txn inh difference,DUX4 txn inh control
CCCNC(=O)N1[C@@H]2Cn3c(ccc(-c4cccc(OC)c4)c3=O)[C@H]1[C@@H](C(=O)NCC)[C@@H]2CO,-3.5,1.5,-5.0
COCC(=O)N1C[C@@H](C)[C@@H](OC)CN(C)C(=O)c2ccc(NC(=O)c3cc(C)on3)cc2OC[C@H]1C,0.2,-7.2,7.4
O=C(C[C@@H]1CC[C@@H](NC(=O)Nc2ccc(C(F)(F)F)cc2)[C@@H](CO)O1)NCc1cccc(F)c1,-7.6,-3.2,-4.3
O=C(Nc1ccc(F)cc1)N1CC(=O)N2[C@@H](CO)[C@H](c3ccc(-c4cccc(F)c4)cc3)[C@@H]2C1,-1.9,-1.8,-0.1
